From PubChem
D2 agonist – activates the human D2 dopamine receptor; DiscoveRx PathHunter D2 beta-arrestin, luminescence, 90 min; 100% = 57 uM dopamine signal; hit rate 0.084% among 360,000; AID 624465; P14416; activation, % (concentration not given with the values); in the data active = activation above about 40%; inconclusive = about 15% to 40%; inactive = below about 15%; note: compound concentration not given in the record; the text of the record calls up to 30% inactive
Target sequence (P14416 whole entry, looked up): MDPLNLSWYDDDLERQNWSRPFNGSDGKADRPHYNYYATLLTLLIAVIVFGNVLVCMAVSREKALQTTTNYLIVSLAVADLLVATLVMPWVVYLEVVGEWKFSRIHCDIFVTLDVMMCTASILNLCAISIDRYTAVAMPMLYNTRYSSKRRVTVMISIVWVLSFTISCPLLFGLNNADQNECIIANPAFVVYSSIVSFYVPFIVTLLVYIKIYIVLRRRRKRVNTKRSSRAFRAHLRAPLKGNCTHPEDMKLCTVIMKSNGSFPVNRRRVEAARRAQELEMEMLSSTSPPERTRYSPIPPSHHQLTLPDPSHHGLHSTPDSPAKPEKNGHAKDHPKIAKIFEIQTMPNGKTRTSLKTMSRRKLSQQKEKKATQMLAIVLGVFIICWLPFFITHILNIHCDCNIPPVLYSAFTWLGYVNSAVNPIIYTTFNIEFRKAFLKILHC
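Agonist mode: compounds alone added to overnight-plated D2 PathHunter cells for 90 min at 37 C, with 57 uM final dopamine (EC100) defining full response. Beta-arrestin recruitment detected by chemiluminescent reagent, read after 1 h at ambient temperature.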
Menin MLL FP FL – inhibitors of human menin-MLL interaction, wild-type MLL peptide; Fluorescence polarization, fluorescein-MLL peptide displacement from menin; FP activity change, % at 61.4 µM; 290,000 tested, under 10 active; inconclusive = falling polarisation curve, or a change in total fluorescence; inactive = total fluorescence flat and polarisation flat or rising; no compound was filed as active; the % refers to the polarisation; negative = inhibition;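 note: % of control where 0% means no effect; inhibitors lower the polarisation; unlabelled MLL peptide was the positive control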
gsp antag – gsp mutant antagonism. gsp-mutant cells, cAMP HTRF, 30 min; control for the full effect not named in the record. Potency, µM (series often up to 76.9 µM), for inactives: top-dose activity change, negative = inhibition, actives largely listed as inhibitors. hit rate 0.4% among 340,000; active = falling curve of any shape with a large fitted effect; inconclusive = falling curve, mostly with a smaller effect; inactive = flat or rising curve; cell line not stated here;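 note: intracellular cAMP measured with PDE inhibitor Ro 20-1724 present during compound exposure; potency is the fitted concentration of half-maximal effect; % is set by controls: 0 for no effect and ±100 for the full control effect; nearly all actives have a fitted effect of over 65% in size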
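Cells, 2000/well, grown 16–24 h in DMEM 10% FBS with 0.5 mg/ml G418, then compounds plus […] (300 uM addition stock), 30 min at 37C. cAMP read by HTRF (cAMP-d2 and anti-cAMP antibody-K in lysis buffer) after 30 min RT.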
ClpP mod – qHTS Assay for Activators of ClpP | ATP-dependent Clp protease proteolytic subunit (Bacillus subtilis (strain 168)), P80244 | purified B. subtilis ClpP, FRET peptide cleavage, 20 min | Potency, µM (top dose mostly 57.5 µM), for the others: top-dose activity change, negative = active | hit rate 1.9% among 340,000 | AID 651965, 2013; active = well fitted falling curve with a large enough effect; inconclusive = small, poorly fitted or top-dose-only effect; inactive = no such curve, though single readings can be large or run the other way; note: potency is the fitted concentration of half-maximal effect; the source files actives as falling curves though it sought activators and does not explain the sign; nearly all actives have a fitted effect of over 65% in size; many hits overshoot -100%
Target sequence (P80244 whole entry, looked up): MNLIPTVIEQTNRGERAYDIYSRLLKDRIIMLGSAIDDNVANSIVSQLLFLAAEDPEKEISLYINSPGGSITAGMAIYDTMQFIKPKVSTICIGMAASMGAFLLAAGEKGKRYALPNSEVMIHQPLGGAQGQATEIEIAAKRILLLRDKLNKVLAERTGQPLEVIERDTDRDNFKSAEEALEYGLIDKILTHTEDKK
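ClpP 10 microg/mL final, pH 8 Tris/KCl buffer with BSA, glycerol, Tween-20; compound pinned in; FRET-FV substrate; RT 20 min; Ex320/Em430; ΔFRET vs ADEP 5.8 microM, DMSO, no enzyme.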
gsp agonist – gsp mutant agonism; gsp mutant cells, cAMP HTRF, 30 min; control for the full effect not named in the record; Potency, µM (series often up to 76.9 µM), inactives show at the highest dose activation (cAMP increase), most hits filed as activators; hit rate 0.13% among 340,000; active = well fitted activation curve with a large enough effect; inconclusive = small, poorly fitted or top-dose-only effect, or another doubt; inactive = no such curve, though single readings can be large or run the other way; cell line not stated here;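 note: phosphodiesterase inhibitor Ro 20-1724 added with compounds to block cAMP breakdown; potency is the fitted concentration of half-maximal effect; nearly all actives have a fitted effect of over 60% in size; about a fifth of the inactives were tested at one dose only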
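Cells stably selected in G418 were plated at 2000/well, grown 16-24 hr, then given compounds in DMSO with the PDE inhibitor […] (300 uM solution added) for 30 min at 37C; cAMP was read by HTRF.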
Sfp PPTase inh – Sfp phosphopantetheinyl transferase inhibition; Q9F4F7; Biochemical Sfp PPTase activity, qHTS; Potency, µM, without a hit: max response, negative = inhibition, actives largely listed as inhibitors; hit rate 3.5% among 310,000; AID 1490; active = well fitted inhibition curve with a large enough effect; inconclusive = small, poorly fitted or top-dose-only effect, or another doubt; inactive = no such curve, though single readings can be large or run the other way;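 note: the enzyme is Sfp with the accession as filed and its product quenches rhodamine fluorescence; potency is the fitted concentration of half-maximal effect; 0% = enzyme reaction without inhibitor and -100% = no enzyme wells; top concentration of the series not given in the record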
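Fluorescence-quenching assay: 15 nM Sfp-PPTase preincubated 15 min at room temperature with compound, then 5 uM rhodamine-CoA and 12.5 uM BHQ-2-labelled YbbR peptide added. Fluorescence (ex 525/em 598 nm) read at start and after 30 min; difference gives rate.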
PINK1 modulator – PINK1 expression modulation. PINK1 immunofluorescence, high-content cytometry, 24 h. Potency, µM (highest dose often 76.6 µM), for the others: top-dose activation (PINK1 increase), actives largely listed as activators. hit rate 0.2% among 410,000. AID 624263; active = well fitted activation curve with a large enough effect; inconclusive = small, poorly fitted or top-dose-only effect; inactive = flat fitted curve, though single readings scatter; cell line not stated here;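 note: potency is the fitted concentration of half-maximal effect; % of control where 0% means no effect; nearly all actives have a fitted effect of over 65% in size; a mitochondrial uncoupler was the plate control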
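Stable cell line treated 24 h with compounds at 5 concentrations (CCCP controls), then fixed and immunostained for PINK1 plus nuclear and cell stains; PINK1 immunofluorescence quantified by laser-scanning microplate cytometry.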
* = called active by the depositor; ? = inconclusive; / = no result given; [ ] = another dose, or the depositor's remark. Rows were taken by chance. Share with any hit: about 5.1%.

Start of the listing, in advance:
Structure | D2 agonist | PINK1 modulator | gsp agonist | gsp antag | Sfp PPTase inh | ClpP mod | Menin MLL FP FL
Cc1cc(C)n2c(SCc3nnc(-c4cccs4)o3)nnc2n1 | -4.2 | 1.3% | 18%[15.4 µM] | 0% | 9% | / | -2.8
CCC(CO)Oc1cc(NCc2ccc(C(C)(C)C)cc2)c2ncn(C(C)C)c2c1 (stereo unspecified) | -3.3 | ? | / | ? | / | -1.3% | /

All compounds of this part, repeating the preview:
Structure | D2 agonist | PINK1 modulator | gsp agonist | gsp antag | Sfp PPTase inh | ClpP mod | Menin MLL FP FL
Cc1cc(C)n2c(SCc3nnc(-c4cccs4)o3)nnc2n1 | -4.2 | 1.3% | 18%[15.4 µM] | 0% | 9% | / | -2.8
CCC(CO)Oc1cc(NCc2ccc(C(C)(C)C)cc2)c2ncn(C(C)C)c2c1 (stereo unspecified) | -3.3 | ? | / | ? | / | -1.3% | /
COCCNC(=O)C1(C)CCCN(C(=O)c2c(-c3ccccc3)noc2C)C1 (stereo unspecified) | -3.9 | -0.3% | / | / | / | 0.1% | /
Cc1cc(NC(=O)Cc2ccccc2)nc2c1c(=O)oc1ccccc12 | 0.2 | 1.5% | -4% | 1% | 25% | -7.4% | 3.7
COC(=O)c1sc(=S)sc1C(=O)OC | -3.6 | / | -16% | 4% | -26% | 0.2% | 1.0
N#CC1=C(N)Oc2ccc3ccccc3c2C1c1cccnc1 (stereo unspecified) | 5.6 | 13% | 24% | ? | 2% | -1.5% | -3.4
Cc1ccc(/C(O)=C/C(=O)C(=O)NC23CC4CC(CC(C4)C2)C3)cc1 | -2.4 | 2.3% | -5%[15.4 µM] | 0% | -2% | -0.5% | 12
Cc1[nH]c2ccccc2c1CCNC(=O)c1ccc2c(c1[N+](=O)[O-])C(=O)c1ccccc1C2=O | ? | -1.7% | -46%[inhibitor] | -1% | 20% | 0.9% | ?
CSCCC(CO)NC(=O)OCc1ccccc1 (stereo unspecified) | 0.5 | -1.3% | -28% | 8% | 18% | -1.7% | -0.1
Nc1ccnn1Cc1cccs1 | -2.7 | 4.0% | -15% | 6% | 3% | -0.5% | -0.3
Nc1nc(N)c2[nH]cnc2n1 | -3.0 | 0.3% | / | 12% | / | -4.1% | /
COc1ccc(N2CCN(C(=O)C(OC(C)=O)c3ccccc3)CC2)cc1 (stereo unspecified) | -1.3 | 0.8% | 1% | -5% | 10% | 0.6% | 3.3
c1ccc2c(c1)oc1c(N3CCOCC3)ncnc12 | -0.3 | -0.1% | 1% | 10% | 22% | -1.5% | -1.4
Cc1ccc[n+](Cc2ccc([N+](=O)[O-])cc2)c1 | -1.8 | 0.5% | 16% | 10% | 14% | 0.2% | -1.8
CCc1cc2c(=O)c(-c3nc4ccccc4n3C)c(CCCC(=O)O)oc2cc1OC(=O)C(C)(C)C | -0.7 | -1.6% | -5%[15.4 µM] | / | -1% | / | 0.7
CC(C)[C@H](NC(=O)NCCc1ccc(Cl)cc1)C(=O)O | 2.0 | 2.4%[38.3 µM] | ? | -6% | 12% | -2.0% | 0.4
O=C(Nc1ccc(NC(=O)c2cc([N+](=O)[O-])ccc2N2CCOCC2)cc1)c1cccs1 | -0.8 | -0.6% | 62% | -3% | -2% | -4.6% | 0.2
COc1ccc(N2CCN(C(=O)c3oc4c(c3C)C(=O)CCC4)CC2)cc1 | 2.6 | 0.2% | -39%[15.4 µM] | -9% | 13% | / | 5.6
CC12CCC(=O)N1C(C(=O)Nc1ccccc1N1CCOCC1)CS2 (stereo unspecified) | -3.3 | 1.7% | 11%[15.4 µM] | 8% | 5% | 1.0% | -1.2
C=C[C@@]1(C)C[C@H](OC(=O)CSC(C)(C)CNC(=O)[C@@H](N)C(C)C)[C@@]2(C)C(C)CC[C@@]3(CCC(=O)[C@@H]32)[C@H](C)[C@H]1O (stereo partly specified) | / | -0.3% | / | / | -10% | -20% | -6.3
Cc1oc(-c2ccccc2F)nc1CS(=O)(=O)CC(=O)NCc1ccccc1Cl | -2.5 | -0.1% | -61%[inhibitor] | -3% | -4% | -1.6% | 0.3
CC(C)(c1ccc(O)cc1)c1ccc(O)cc1 | -2.4 | -1.5% | 26% | 6% | -7% | 0.9% | -3.9
COc1nc(NC23CC4CC(CC(C4)C2)C3)nc(OC)n1 | -0.2 | -1.0% | -41%[inhibitor] | -3% | 5% | -2.1% | -3.4
COc1ccc(S(=O)(=O)N2CCC(C(=O)NCCC(=O)Nc3nccs3)CC2)cc1 | -0.3 | -1.0% | 4% | 11% | 6% | 0.9% | -3.7
Cn1nc(-c2ccccc2)c2ncc(C(F)(F)F)cc21 | 8.6 | 0.6% | -6%[15.4 µM] | -24% | 24% | / | 0.1
O=C(NC(=O)c1ccc(C(F)(F)F)cc1)Nc1ccc(-c2cnco2)cc1 | 5.0 | 13% | 7%[15.4 µM] | 3% | 10% | -2.6% | -0.3
CCOC(=O)CSc1snnc1-c1ccccc1 | -3.7 | -1.1% | -6% | -6% | 17% | 0.9% | 5.0
O=c1[nH]c(-c2ccccc2)c(-c2ccccc2)nc1[N+](=O)[O-] | -2.0 | -3.3% | ? | 5% | -21% | 3.3% | -0.7
CCOC(=O)N1CCN(C(=O)CSc2nc3c([nH]c4ccccc43)c(=O)n2CCOC)CC1 | -0.5 | 4.1% | -4%[15.4 µM] | 0% | 15% | -4.3% | /
O=C(CCNS(=O)(=O)c1ccccc1C(F)(F)F)N1CCCCCCC1 | -1.7 | 3.0% | 25% | -3% | / | 0.6% | /
NCCCCCCNS(=O)(=O)c1ccc2c(Cl)cccc2c1 | / | 1.5% | / | / | -19% | -1.1% | ?
CCc1cccc(NC(=O)CCc2nc3sc4c(c3c(=O)[nH]2)CCCC4)c1 | -1.9 | 3.7% | -3%[15.4 µM] | -4% | / | 7.5% | /
CCOc1ccc(CSC(=N)N)cc1[N+](=O)[O-] | -6.5 | 8.1% | 7% | 10% | -14% | 0.7% | -2.9
COC(=O)c1ccc(Cn2nnc3c(=O)[nH]c(C4CCN(S(=O)(=O)c5cc(C)ccc5C)CC4)nc32)cc1 | 5.6 | 0.5% | -13% | ? | -8% | 0.3% | -1.8
COc1ccc(/C=N/N2CCN(C3c4ccccc4-c4ccccc43)CC2)cc1OC | -1.5 | 1.9% | 2% | -7% | 0% | -2.2% | 5.3
CC(Cc1cccs1)NC(=O)Nc1cccc(Cl)c1 (stereo unspecified) | -3.4 | 1.9% | -21% | -12% | -5% | -2.0% | -0.7
Cc1cc(NC(=O)C2Oc3ccccc3OC2C)no1 (stereo unspecified) | 0.8 | -1.2% | 14% | 0% | 12% | / | 1.4
CCOc1ccc2nc(N3CCCC(C(=O)NCCCN4CCOCC4)C3)sc2c1 (stereo unspecified) | -0.6 | 0.3% | ? | -5% | 11% | -0.1% | 1.7
CCN(CC)C(=O)CN(C#N)c1nc(NC(C)C)nc(NC(C)C)n1 | 0.2 | / | -10% | 1% | 19% | -0.4% | -0.3
NNC(=O)c1c[nH]c2ccc(OCc3ccccc3)cc12 | -0.9 | -0.9% | -14%[15.4 µM] | 3% | / | / | /
Cc1ccc(Nc2nc(-c3ccc(S(=O)(=O)N4CCOCC4)cc3)cs2)cc1Cl | 4.6 | 1.9% | 5% | 7% | -2% | 16µM* | /
OC(CSc1ccccc1Cl)CN1CCN(c2ccccc2F)CC1 (stereo unspecified) | ? | 7.0%[38.3 µM] | 0% | -6% | -2% | 1.3% | -0.1
CC(SCC(=O)Nc1ccc(S(=O)(=O)N2CCCCC2)cc1)C(=O)O (stereo unspecified) | -0.7 | 0.8% | ? | 7% | 5% | -0.3% | 0.5
CC(C)CN(C(=O)CN(C)C(=O)Cc1ccc(Cl)cc1)c1c(N)n(CC(C)C)c(=O)[nH]c1=O | -0.6 | 0.1% | 12%[15.4 µM] | -6% | / | -11% | /
COc1cc(C)c(CNc2cc(C)cc(C)c2)cc1C | 0.6 | 6.6%[38.3 µM] | 8% | -10% | 4% | 1.7% | -1.0
CCC(C)c1ccc(S(=O)(=O)N2CCN(C(=O)CN3C(=O)NC(C)(C4CC4)C3=O)CC2)cc1 (stereo unspecified) | -2.1 | 1.2% | -99%[inhibitor] | / | / | -0.8% | /
COc1ccc(NC(=O)c2cc(=O)[nH]c3ccccc23)cc1 | -1.9 | 4.3% | 48% | 20% | -9% | 0.0% | -10
CCN(c1cccc(C)c1)S(=O)(=O)c1ccc2c(c1)NC(=O)CS2 | -1.5 | 1.3% | -1% | -19% | 11% | -0.4% | 2.2
Cc1ccc2c(c1)C(=O)C(=O)N2c1ccc(C(F)(F)F)cc1 | -21 | 4.8% | / | 7% | / | -0.6% | /
CCOC(=O)CCCN1CC(O)=C(c2nc(-c3ccc(Cl)cc3)cs2)C1=N | -3.3 | 4.9% | 24%[15.4 µM] | -11% | -6% | -1.9% | 3.5

Continuation.
Structure | D2 agonist | PINK1 modulator | gsp agonist | gsp antag | Sfp PPTase inh | ClpP mod | Menin MLL FP FL
Cc1sc(NC(=O)CCl)c(C(=O)c2ccccc2)c1C | -3.8 | -4.8% | 4% | -12% | 22µM* | -0.2% | 0.0
Cc1cc(O)c(C(=O)/C=C/c2ccc(Cl)cc2)c(=O)o1 | -3.2 | -0.4% | 4%[15.4 µM] | -14% | 3% | -0.3% | ?
N#CCCn1cc(C(CC(=O)c2ccc(Br)cc2)C(=O)O)c2ccccc21 (stereo unspecified) | -3.3 | 1.6% | -10% | -12% | 12% | -0.1% | 6.8
CC(=O)c1cccc(NC(=O)CCCOc2ccc(C)cc2)c1 | -3.7 | 0.8% | -5% | -9% | -8% | 1.2% | 8.6
CC[C@]12c3[nH]c4cc(-c5ccco5)ccc4c3CCN1C(=O)[C@@H](CC(=O)NC/C=C(\C)CCC=C(C)C)C[C@@H]2C(=O)N1CCN(C(=O)C2CC2)CC1 | -3.5 | 2.2% | / | -17% | / | 4.0% | /
CC(C)N1CCc2c(sc(NC(=O)c3cc(-c4cccs4)nc4ccccc34)c2C(N)=O)C1 | 6.4 | 0.6% | -28% | -7% | ? | -22% | 9.7
